Screening results (PubChem)
GLA inh pH 4.5 = alpha-galactosidase A (human) inhibition, pH 4.5. P06280. purified enzyme, 4-MU-alpha-Gal fluorescence, pH 4.5. activity change, negative = inhibition, % at 105 µM. 230,000 tested, under 10 active; inconclusive = small, poorly fitted or top-dose-only inhibition, or a rising curve; inactive = flat fitted curve, though single readings scatter; no compound was filed as active;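 further: 0% = full activity with enzyme and -100% = basal without enzyme; dose as in the result columns while the protocol names 77 µM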
Rango dissoc inh = inhibitors of RanGTP-induced Rango-importin beta complex dissociation; O95149+P62826; Biochemical FRET Rango-importin beta, RanGTP-induced dissociation; Potency, µM (highest dose often 46.1 µM), inactives show at the top dose activity change, negative = inhibition; actives 0.071% (n = 340,000); AID 540253; active means falling FRET ratio curve, often poorly fitted, with flat reads before Ran was added; inconclusive means other falling curves, or compound fluorescence or quenching; inactive means flat or rising ratio curve;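 further: potency means the concentration at half of the fitted maximal effect; % of control where 0% means no effect; nearly all actives have a fitted effect of over 45% in size; -100% = wells without RanGTP and RCC1; the record marks most hits as doubtful in a second field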
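Rango/importin beta premix (0.1/0.25 uM final), PBS + 1 mM DTT + 0.02% Tween-20 + 0.1% BSA; cpd 5 min RT; FRET pre-read; + RanGTP-RCC1 (0.6 uM Ran, 2 mM GTP, 0.2 uM RCC1); 45 min RT; FRET post-read, ex 430, em 486/530 nm.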
Rango complex inh = inhibitors of Rango-importin beta complex formation; Q14974; AID 540263; Potency, µM (series often up to 92.2 µM), for the others: top-dose inhibition of complex formation; actives 0.031% (n = 340,000); Rango CFP/YFP FRET sensor + importin beta, 45 min; active = rising FRET ratio curve, often small or poorly fitted; inconclusive = mostly compound fluorescence or quenching in the first reads; inactive = flat curves in all reads;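 further: potency means the concentration at half of the fitted maximal effect; 0% = DMSO wells and 100% = buffer wells lacking importin beta; nearly all actives have a fitted effect of over 15% in size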
Target sequence (Q14974 whole entry, looked up): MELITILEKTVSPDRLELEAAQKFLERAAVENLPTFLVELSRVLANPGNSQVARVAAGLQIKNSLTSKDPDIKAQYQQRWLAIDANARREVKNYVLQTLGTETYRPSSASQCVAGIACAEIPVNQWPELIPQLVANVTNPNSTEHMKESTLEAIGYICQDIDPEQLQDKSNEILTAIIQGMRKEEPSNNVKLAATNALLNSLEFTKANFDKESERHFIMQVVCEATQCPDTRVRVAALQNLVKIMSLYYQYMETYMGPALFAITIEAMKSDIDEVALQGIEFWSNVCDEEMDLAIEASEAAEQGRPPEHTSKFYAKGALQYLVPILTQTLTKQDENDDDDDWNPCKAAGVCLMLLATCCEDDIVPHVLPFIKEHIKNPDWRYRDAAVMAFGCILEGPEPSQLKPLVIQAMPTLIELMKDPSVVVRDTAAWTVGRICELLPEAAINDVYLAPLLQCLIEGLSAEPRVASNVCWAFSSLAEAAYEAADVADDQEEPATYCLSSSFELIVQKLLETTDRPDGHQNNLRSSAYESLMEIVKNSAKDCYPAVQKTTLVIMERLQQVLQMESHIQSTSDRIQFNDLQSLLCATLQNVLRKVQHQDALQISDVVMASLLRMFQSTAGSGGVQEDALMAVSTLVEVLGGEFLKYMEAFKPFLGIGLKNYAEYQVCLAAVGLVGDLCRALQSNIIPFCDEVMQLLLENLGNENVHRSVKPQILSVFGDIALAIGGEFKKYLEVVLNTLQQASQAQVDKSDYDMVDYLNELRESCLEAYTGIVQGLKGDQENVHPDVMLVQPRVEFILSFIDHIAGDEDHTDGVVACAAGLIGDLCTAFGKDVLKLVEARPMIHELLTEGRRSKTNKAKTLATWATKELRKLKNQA
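FRET biosensor Rango (snurportin 1 IBB between N-terminal EYFP and C-terminal Cerulean), 50 nM in PBS/1 mM DTT/0.02% Tween-20/0.1% BSA, preincubated 5 min RT with compound; 0.125 microM importin beta added, 45 min RT, CFP/YFP FRET ratio read.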
miR-21 FLuc = miR-21 reporter, rising signal; HeLa miR-21 FLuc reporter, luciferase, 48 h; Potency, µM (top dose mostly 38.3 µM), inactives show at the top dose reporter change, positive = more light; 340,000 tested, under 10 active; active = well fitted rising curve with a large enough effect; inconclusive = small, poorly fitted or top-dose-only effect; inactive = no such curve, though single readings can be large or run the other way;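 further: % of control where 0% means no effect; miR-21 action dims this reporter so a rising signal means less miR-21 action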
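HeLa cells stably expressing CMV-driven firefly luciferase with a downstream miR-21 binding sequence, endogenously expressing miR-21, were treated with titrations (up to about 40uM final) for 48 hours at 37 degree Celsius. Luciferase luminescence was read after lysis.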
* marks the source's active call; other numbers are inactive results; u = inconclusive; x = not tested or not shown; & = joins results of further samples. A portion of the library. The share of hits here may be higher or lower than overall.

GLA inh pH 4.5 | Rango dissoc inh | Rango complex inh | miR-21 FLuc | mol
6 | 7% | 0.3% | -2% | CCNC(=S)N1CCN(S(=O)(=O)c2ccc(C)cc2)CC1
x | 10% | -0.8% | 1% | Cc1cc(OCC(=O)NCCc2cccc(F)c2)c2c(C)cc(=O)oc2c1
4 | -17% | -2.9% | 5% | Cc1ccc(Nc2cnn(C34CC5CC(CC(CC(=O)O)(C5)C3)C4)c(=O)c2Cl)c(Cl)c1
2 | 1% | 3.1% | 6% | CCc1ccc(OCC(=O)NNC(=O)c2nn(CC)c(=O)c3ccccc23)cc1
x | -14% | -9.9% | 14% | CC(=O)Nc1ccc(NS(=O)(=O)c2ccc(-c3cnc(C4CC4)o3)cc2)cc1
6 | -2% | 4.3% | -9% | Cc1ccccc1C1CC(c2cccs2)Nc2nnnn21 (centres undefined)
x | 14% | -0.2% | 0% | COc1cc(C(=O)N2CCN(C(=O)C3COc4ccccc4O3)CC2)cc(OC)c1OC (centres undefined)
0 | 12% | u | 7% | CC(C)(C)c1csc(NC(=O)c2ccc(Cl)s2)n1
2 | 0% | 3.1% | 0% | O=C(N[C@@H](Cc1ccc(O)cc1)C(=O)O)c1ccc(C(F)(F)F)cc1
-5 | 16% | -0.7% | 5% | Cc1cc(Cl)ccc1OC(C)C(=O)Nc1ccccc1N1CCOCC1 (centres undefined)
1 | -6% | -4.5% | 0% | CCn1c(=O)c2cc(C(=O)Nc3ccc(OC)cc3OC)sc2c2ccccc21
-2 | 21% | -0.4% | -2% | CC1CN(C2CCN(S(=O)(=O)Cc3ccccc3)CC2)CC(C)O1 (centres undefined)
-13 | -5% | 0.9% | -3% | CCOc1ccc(-n2cnnn2)cc1S(=O)(=O)N1CCC(C)CC1C (centres undefined)
-5 | -10% | 0.4% | -45% | Cc1cccc(N=C2NC(=O)/C(=C/c3cccs3)S2)c1
0 | 0% | -4.5% | -2% | COc1ccc(S(=O)(=O)N(C)C)cc1NCC(=O)Nc1ccc(Br)c(C)c1
x | 4% | 1.0% | -6% | COC(=O)c1c(NC(=O)C(=O)NCCCN2CCOCC2)sc2c1CCC2
x | 0% | 0.2% | 4% | CCC(C)(C)n1nnnc1C(c1ccccc1OC)N1CCN(C(=O)c2ccco2)CC1 (centres undefined)
1 | -14% | 0.2% | 1% | O=C(COc1cccnc1[N+](=O)[O-])Nc1cc(S(=O)(=O)N2CCCCC2)ccc1Cl
x | -1% | 6.8% | 6% | O=C(Nc1cccc(NC(=O)c2cccc(Cl)c2)c1)c1cccnc1
1 | -4% | 2.3% | -1% | O=C(O)c1ccccc1-c1ccccc1C(=O)Nc1nccs1
-6 | 0% | 7.9% | -10% | CCOC(=O)c1ccc(N2C(=O)CC(N3CCN(C/C=C/c4ccccc4)CC3)C2=O)cc1 (centres undefined)
1 | u | u | -16% | O=C(NCc1cccs1)Nc1cccs1
x | 4% | 0.5% | x | Cc1cc(=O)oc2cc(Oc3ccc([N+](=O)[O-])cc3C(F)(F)F)ccc12
x | 2% | 0.7% | u | Cc1ccc2[nH]c3c(c2c1)CCCC3NC(=O)CCl (centres undefined)
6 | 1% | 0.4% | 0% | COc1ccc2c(c1)c(=O)oc1cc(OCC(=O)N3CCc4ccccc4C3)ccc12
x | 1% | 2.2% | x | CC(C)C(NS(=O)(=O)c1ccccc1)C(=O)OCC(=O)NNC(=O)c1ccccc1 (centres undefined)
-3 | 6% | -0.9% | -18% | C=CCOc1ccc(CNn2cn[nH]c2=S)cc1OC
-9 | 16% | 3.4% | 1% | CCc1c(C)nc(N)nc1OCC(F)(F)C(F)F
1 | 8% | -0.1% | -6% | COc1ccc(S(=O)(=O)N(CCC(N)=O)Cc2ccco2)cc1OC
4 | -2% | -1.5% | -8% | CCN1CCN(C(=O)CS(=O)Cc2nc(-c3ccc(OC)cc3)oc2C)CC1 (centres undefined)
-9 | 7% | -1.9% | -7% | C=CCNCCOCCSc1ccc(Cl)cc1
x | -11% | -4.6% | -14% | Cc1nc(NC(=O)CSc2nc3ccccc3s2)sc1C(=O)N(C)C
x | 11% | -2.7% | -1% | O=C(COc1ccc2ccccc2c1)N[C@@H](C(=O)O)c1ccc(O)cc1
3 | 21% | -1.7% | 1% | CCOC(=O)N1CCN(C(=O)C2CCN(S(=O)(=O)N3CCCC3)CC2)CC1
1 | 0% | -0.2% | -2% | Cc1ccc(CNS(=O)(=O)c2ccc3c(c2)n(C)c(=O)c(=O)n3C)cc1
3 | 7% | 0.6% | -3% | Cc1cc2nc(N3C(=O)CNC3=S)sc2cc1C
x | 1% | 1.8% | 4% | NC(=O)C1CCN(C(=O)/C(=C/c2ccco2)NC(=O)c2ccccc2)CC1
15 | 4% | -1.3% | -18% | O=C(CSc1nccn1Cc1ccccc1)NCc1ccccc1
x | 0% | 0.1% | -12% | COc1ccccc1NC(=O)c1ccc(NC(=O)c2ccco2)cc1
7 | -4% | -0.3% | 0% | CN(C)S(=O)(=O)n1cnc2ccccc21
x | -6% | 0.2% | -4% | COc1ccc(CN2C(=NC(=O)C3CCCO3)SC3CS(=O)(=O)CC32)cc1OC (centres undefined)
-26 | 0% | 0.2% | 1% | COc1ccc(OCCC(=O)OCC(=O)NCCc2ccccc2)cc1
x | 0% | -0.3% | -2% | O=C(NCCN1CCCCC1)Nc1ccccc1F
-3 | 3% | -2.2% | -1% | Cc1ccc(S(=O)(=O)N2CCC(C(=O)NCCc3ccc(S(N)(=O)=O)cc3)CC2)cc1
7 | -8% | u | -25% | COc1ccc(Oc2ncnc3c2ncn3Cc2ccccc2)cc1
x | 6% | -1.2% | x | CCn1nc(C(=O)Nc2cccc(S(=O)(=O)N3CCCC3)c2)c2ccccc2c1=O
5 | -5% | 0.1% | -18% | COC(c1ccccc1)c1nnc(CCC(=O)NC2CCCCC2)o1 (centres undefined)
-6 | -19% | -5.0% | -3% | CC(=O)c1cccc(NC(=O)C(OC(=O)/C=C/c2ccc3c(c2)OCO3)c2ccccc2)c1 (centres undefined)

A portion from further up:
GLA inh pH 4.5 | Rango dissoc inh | Rango complex inh | miR-21 FLuc | mol
15 | 4% | -1.3% | -18% | O=C(CSc1nccn1Cc1ccccc1)NCc1ccccc1
x | 0% | 0.1% | -12% | COc1ccccc1NC(=O)c1ccc(NC(=O)c2ccco2)cc1
7 | -4% | -0.3% | 0% | CN(C)S(=O)(=O)n1cnc2ccccc21
x | -6% | 0.2% | -4% | COc1ccc(CN2C(=NC(=O)C3CCCO3)SC3CS(=O)(=O)CC32)cc1OC (centres undefined)
-26 | 0% | 0.2% | 1% | COc1ccc(OCCC(=O)OCC(=O)NCCc2ccccc2)cc1
x | 0% | -0.3% | -2% | O=C(NCCN1CCCCC1)Nc1ccccc1F

Later entries.
GLA inh pH 4.5 | Rango dissoc inh | Rango complex inh | miR-21 FLuc | mol
x | 15% | 2.6% | x | CCN(CC(=O)Nc1c(F)cccc1F)C(=O)c1ccc2c(c1)OCO2
5 | -10% | 1.0% | -41%&-48% | Cc1cccc(NC(=O)Nc2ccc(C)c(C)c2)n1
3 | 6% | 1.1% | -42% | CN(CCc1ccccn1)C(=O)Nc1ccc(Cl)cc1
1 | 4% | 1.5% | -12% | Cc1ccc(-c2csc3nc[nH]c(=O)c23)cc1
2 | 0% | -0.3% | -25% | CCc1nnc(NC(=O)C2Cc3ccccc3CN2S(=O)(=O)c2c(C)c(C)cc(C)c2C)s1 (centres undefined)
x | -12% | u | x | CC(=O)Nc1ccc(NC(=O)CCc2nc3sc4c(c3c(=O)[nH]2)CCCC4)cc1
8 | -10% | -0.2% | -30% | COc1ccc(/C=N/Nc2nonc2N)cc1OC
x | u | 1.1% | 1% | NS(=O)(=O)c1ccc(CNS(=O)(=O)c2ccc3c(c2)OCCO3)cc1
x | 45% | -9.1% | x | COc1ccc(CCNC(=O)c2ccc(Cl)c(S(=O)(=O)N3CCCC3)c2)cc1
-5 | -15% | -0.5% | -3% | CCOc1cccc(/C(O)=C2/C(=O)C(=O)N(CCOC)C2c2ccncc2)c1 (centres undefined)
-3 | 5% | 2.3% | -3% | CCOC(=O)CC(=O)Nc1ccccc1C(=O)O
1 | 24% | 6.8% | 2% | CCOC(=O)c1cnc2ccc(OCC)cc2c1NCc1ccccc1OC

5 structures already listed, sorted by length of the SMILES, high to low:
GLA inh pH 4.5 | Rango dissoc inh | Rango complex inh | miR-21 FLuc | mol
2 | 0% | -0.3% | -25% | CCc1nnc(NC(=O)C2Cc3ccccc3CN2S(=O)(=O)c2c(C)c(C)cc(C)c2C)s1 (centres undefined)
x | u | 1.1% | 1% | NS(=O)(=O)c1ccc(CNS(=O)(=O)c2ccc3c(c2)OCCO3)cc1
x | 15% | 2.6% | x | CCN(CC(=O)Nc1c(F)cccc1F)C(=O)c1ccc2c(c1)OCO2
1 | 4% | 1.5% | -12% | Cc1ccc(-c2csc3nc[nH]c(=O)c23)cc1
8 | -10% | -0.2% | -30% | COc1ccc(/C=N/Nc2nonc2N)cc1OC

The listing continues:
GLA inh pH 4.5 | Rango dissoc inh | Rango complex inh | miR-21 FLuc | mol
3 | -4% | 2.0% | 0% | COC(=O)c1ccc2c(=O)n(CCN3CCOCC3)c(SCC(=O)NCc3ccccc3)nc2c1
6 | 1% | 0.6% | -6% | CCOC(=O)C1(Cc2ccc(Cl)cc2)CCN(C(=O)c2cscn2)CC1
-11 | 35% | 2.4% | 15% | O=C(Nc1ccccc1)c1ccc(NC2CCCCC2)c(S(=O)(=O)N2CCOCC2)c1
-1 | -14% | u | -11% | O=C(Nc1ccc2c(c1)nc1n2CCN(Cc2ccccc2)C1)c1cccs1
-3 | -3% | 0.5% | -28% | Cc1sc(NC(=S)NC(=O)c2ccco2)c(C#N)c1C
10 | 1% | -0.9% | 3% | Cc1csc(-c2cnn(-c3ccccc3)c2NC(=O)c2cccc(C(F)(F)F)c2)n1
-9 | 1% | 4.7% | -3% | O=C(Nc1ccncc1)c1ccc2c(c1)S(=O)(=O)c1ccccc1C2=O
-1 | -7% | -2.6% | -4% | Cc1sc2ncnc(Sc3ccccc3C(=O)O)c2c1C
x | 15% | 0.4% | x | O=C(CNC(=O)c1ccccc1)Oc1cccc(Cl)c1
1 | -10% | 0.1% | -2% | Cc1cccc(C)c1NC(=O)C1CCCN1C(=O)OC(C)(C)C (centres undefined)
-5 | -13% | 7.4% | 5% | COc1ccc(Nc2nc(N)c([N+](=O)[O-])c(N3CCOCC3)n2)cc1
2 | 5% | -0.3% | 0% | CCNC(=O)Cc1ccc(NS(=O)(=O)c2ccc(F)cc2)cc1
x | -5% | 2.9% | 9% | O=C(C1CCCN(Cc2ccc(Br)cc2)C1)N1CCCCC1 (centres undefined)

Ordered by the number under miR-21 FLuc (ascending): some entries from above
GLA inh pH 4.5 | Rango dissoc inh | Rango complex inh | miR-21 FLuc | mol
6 | 7% | 0.3% | -2% | CCNC(=S)N1CCN(S(=O)(=O)c2ccc(C)cc2)CC1
-3 | 3% | -2.2% | -1% | Cc1ccc(S(=O)(=O)N2CCC(C(=O)NCCc3ccc(S(N)(=O)=O)cc3)CC2)cc1
x | u | 1.1% | 1% | NS(=O)(=O)c1ccc(CNS(=O)(=O)c2ccc3c(c2)OCCO3)cc1
x | 1% | 1.8% | 4% | NC(=O)C1CCN(C(=O)/C(=C/c2ccco2)NC(=O)c2ccccc2)CC1
x | -1% | 6.8% | 6% | O=C(Nc1cccc(NC(=O)c2cccc(Cl)c2)c1)c1cccnc1
